Screens (PubChem BioAssay)
TRPML1 ag: activates the human TRPML1 channel. Q9GZU1. TRPML1-expressing cells, Ca2+ dye fluorescence, FDSS; host cell line not named in the record; reference of the full effect not given here. activation, % (test concentration not listed). actives 0.12% (n = 410,000); in the data active = activation above about 50%; inconclusive = about 30% to 50%; inactive = below about 30%; note: 0% is about no effect; the text of the record puts the active cut at 80%
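TRPML1-DL cells, Tet-induced overnight (~16 h, 37 degrees C), loaded 45-90 min at room temperature with Ca8 no-wash calcium dye plus quencher. FDSS fluorescence: 10 s baseline, compound pin-transfer, 110 s agonist read, then EC80 54-4 (4uM final) and 110 s antagonist read.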
CtBP-E1A inh: inhibitors of CtBP/E1A interaction; actives 0.49% (n = 340,000); activity change, % (no concentration beside the values); AlphaScreen GST-E1A/His-CtBP binding, 1536-well; stronger effect = lower value; control for the full effect not named in the record; in the data active means activity change below about -65%; inconclusive means about -30% to -65%; inactive means above about -30%; note: % is set by controls: 0 for no effect and ±100 for the full control effect; compound concentration not given in the record
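In 5 uL wells, 23 nL compound meets equimolar GST-E1A and His-CtBP (5X stock 125 nM each) for 2 h, 37 °C. Beads (5X, 50 ug/mL) then 1 h, 37 °C, dark.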
D2 PAM: positive allosteric modulators of human D2 dopamine receptor; P14416; DiscoveRx D2 beta-arrestin cells, luminescence, 90 min; 100% = 57 uM dopamine signal; potentiation, % (no concentration beside the values); actives 0.23% (n = 360,000); AID 624464; active = potentiation of 50% or more; inconclusive = 30% to 50%; inactive = 30% or less;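 note: compound concentration not given in the record; tested on top of an EC20 dose of dopamine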
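PathHunter beta-arrestin assay in DiscoveRx D2 cells. Compounds were added with an EC20 of dopamine (50 nM final) for 90 min at 37 deg C. Luminescence was read 1 h after detection reagent, with 57 uM dopamine as the EC100 control.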
Six1-Eya2 inh: inhibitors of human Six1/Eya2 interaction | actives 0.56% (n = 360,000) | activity change, % (no concentration beside the values) | AlphaScreen GST-Six1/His-Eya2 binding, biochemical; stronger effect = lower value; control for the full effect not named in the record | AID 651725; in the data active = activity change below about -65%; inconclusive = about -30% to -65%; inactive = above about -30%; note: % is set by controls: 0 for no effect and ±100 for the full control effect; compound concentration not given in the record
Target sequence (O00167 whole entry, looked up): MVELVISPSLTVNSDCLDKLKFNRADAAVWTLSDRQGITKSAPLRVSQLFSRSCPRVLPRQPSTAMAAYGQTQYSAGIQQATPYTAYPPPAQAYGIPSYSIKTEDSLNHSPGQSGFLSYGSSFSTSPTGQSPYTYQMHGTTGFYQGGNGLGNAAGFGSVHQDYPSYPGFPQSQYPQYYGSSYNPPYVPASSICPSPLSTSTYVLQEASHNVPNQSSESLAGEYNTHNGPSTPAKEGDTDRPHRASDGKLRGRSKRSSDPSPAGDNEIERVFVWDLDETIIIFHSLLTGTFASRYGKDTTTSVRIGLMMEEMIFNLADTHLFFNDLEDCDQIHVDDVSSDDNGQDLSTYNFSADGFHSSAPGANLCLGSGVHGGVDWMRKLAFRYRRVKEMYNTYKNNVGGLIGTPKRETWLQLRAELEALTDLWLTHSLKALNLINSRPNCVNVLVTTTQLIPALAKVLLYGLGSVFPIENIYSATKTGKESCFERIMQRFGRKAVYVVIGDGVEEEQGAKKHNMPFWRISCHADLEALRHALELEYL
Target sequence (Q15475 whole entry, looked up): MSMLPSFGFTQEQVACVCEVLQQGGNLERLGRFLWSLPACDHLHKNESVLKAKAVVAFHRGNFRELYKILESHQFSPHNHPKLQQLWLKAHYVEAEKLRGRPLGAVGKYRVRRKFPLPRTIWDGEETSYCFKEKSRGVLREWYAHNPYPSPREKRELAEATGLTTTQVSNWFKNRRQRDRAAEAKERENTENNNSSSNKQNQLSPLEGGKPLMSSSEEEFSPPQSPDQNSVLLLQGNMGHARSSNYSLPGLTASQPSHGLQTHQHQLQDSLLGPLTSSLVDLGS
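Homogeneous AlphaScreen proximity assay pairing GST-Six1 with His-tagged Eya2 (added as 5X mix: 250 nM and 500 nM) in 50 mM Tris pH 8.0, 300 mM NaCl, 1 mM TCEP. Glutathione donor and nickel acceptor beads; 1 h, 37 °C, dark.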
D2 ag: agonists of human D2 dopamine receptor (beta-arrestin) | P14416 | DiscoveRx PathHunter D2 beta-arrestin, luminescence, 90 min; 100% = 57 uM dopamine signal | activation, % (test concentration not listed) | actives 0.084% (n = 360,000) | AID 624465; in the data active = activation above about 40%; inconclusive = about 15% to 40%; inactive = below about 15%; note: compound concentration not given in the record; the text of the record calls up to 30% inactive
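Agonist mode: compounds alone added to overnight-plated D2 PathHunter cells for 90 min at 37 C, with 57 uM final dopamine (EC100) defining full response. Beta-arrestin recruitment detected by chemiluminescent reagent, read after 1 h at ambient temperature.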
PINK1 expr mod: changes PINK1 expression; PINK1 immunofluorescence, high-content cytometry, 24 h; actives 0.2% (n = 410,000); Potency, µM (series often up to 76.6 µM), inactives show at the top dose activation (PINK1 increase), hits mostly activators; active = well fitted activation curve with a large enough effect; inconclusive = small, poorly fitted or top-dose-only effect; inactive = flat fitted curve, though single readings scatter; cell line not stated here;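 note: potency is the fitted concentration of half-maximal effect; % of control where 0% means no effect; nearly all actives have a fitted effect of over 65% in size; a mitochondrial uncoupler was the plate control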
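Measures PINK1 amount and localization on or inside mitochondria by immunofluorescence. Stable cells get compounds at 5 concentrations for 24 hours before fixation and staining; CCCP controls included.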
Numbers without * were called inactive; u = inconclusive; x = not tested or not shown; [ ] = remark or other dose.

SMILES	TRPML1 ag	CtBP-E1A inh	D2 PAM	Six1-Eya2 inh	D2 ag	PINK1 expr mod
Cc1nc(N2CCN(Cc3ccccc3)CC2)nc2c1C(=O)CC(c1ccco1)C2 (stereo unspecified)	-0.6	-11	-16	-20	-2.3	u
O=C(Nc1ccncc1NC(=O)c1cccc([N+](=O)[O-])c1)c1cccc([N+](=O)[O-])c1	-0.8	7	-2	-2	0.2	1.0%
CN(C)CCNC(=O)c1cccc2nc3c(ccc4ccccc43)nc12	1.0	u	-32	u	-3.0	-5.7%
FC(F)(F)c1cccc(N2CCN(C(=S)NCC3CCCO3)CC2)c1 (stereo unspecified)	1.2	0	-12	-4	5.0	2.8%
Cc1c(NC(=O)CSc2nc3ccccc3[nH]2)c(=O)n(-c2ccccc2)n1C	0.1	4	0	4	2.5	1.2%[38.3 µM]
O=C(NCc1nnnn1-c1ccc(Cl)cc1)C1CC(=O)N(c2ccc(F)cc2)C1 (stereo unspecified)	-0.8	1	-6	0	1.5	2.1%
CC(NC(=O)COC(=O)C1=COCCO1)C12CC3CC(CC(C3)C1)C2 (stereo unspecified)	-0.6	0	4	22	-3.3	-0.4%
COc1cc(C)nc(N2CCC(C(=O)NCC3CCCO3)CC2)n1 (stereo unspecified)	-0.5	-18	-24	-2	-2.0	-0.1%
CCOc1ccc(OCC)c(NC(=O)C2CCCN(S(=O)(=O)c3c(C)n[nH]c3C)C2)c1 (stereo unspecified)	0.0	-3	-3	-11	-1.3	2.4%
Cc1ccccc1Cn1nc(C)c(NC(=O)C2(C)CC2(Cl)Cl)c1C (stereo unspecified)	0.7	-6	-15	-5	0.0	2.3%
O=[N+]([O-])c1ccccc1CSc1nnc2ccccn12	1.2	5	-5	4	-2.1	1.1%
COC(=O)CCc1n[nH]c(=O)[nH]c1=O	-0.7	-5	-8	-14	-1.4	2.3%
Cc1cc(Cl)c(S(=O)(=O)N2CCSCC2)cc1OCC(N)=O	0.5	-3	-19	6	-0.3	-0.3%
COc1ccc(S(=O)(=O)N2CCOCC2)cc1C(=O)Nc1cc(C)on1	0.3	-8	-33	-8	-2.6	-0.4%
N#C/C(=C/c1ccc(Br)o1)C(N)=O	-0.9	-1	-6	-1	-2.8	5.2%
CC(=O)c1ccc(NC(=O)C(NC(=O)c2ccccc2)=C(C)C)cc1	1.2	-13	-1	2	2.3	0.7%
CCN1CCN(CC(O)COC(c2ccccc2)c2ccccc2)CC1 (stereo unspecified)	0.4	13	-3	0	-3.5	0.5%
COc1ccccc1N(Cc1ccccc1)S(=O)(=O)c1cccc(C(=O)O)c1	-0.4	6	0	1	-11	-2.4%
NC(=O)Cn1nnc(-c2ccc(C(F)(F)F)cc2)n1	-0.6	6	-7	-2	-2.8	18%[38.3 µM]
CCCNC(=O)CSc1nc2ccccc2c(=O)n1CCC	-0.3	0	4	-3	1.7	-1.8%
COc1cc(CN2CCC(C(=O)NC3CCCC3)CC2)ccc1O	-0.1	1	-2	4	-1.6	0.5%
O=C(Nc1ccncc1)c1cccc(S(=O)(=O)N2CCN(c3ccc(F)cc3)CC2)c1	0.4	-20	-9	-27	3.9	0.4%
Cn1nc(OCCOc2ccccc2)ccc1=O	-1.3	6	-15	-1	-0.7	-1.4%
CCc1cccc(C)c1NC(=S)N1CCCCC1c1cccnc1 (stereo unspecified)	x	-5	-9	-1	0.0	1.0%
Cc1cnc(NC(=O)CSC(=S)N2CCOCC2)s1	1.1	3	0	3	3.1	0.2%

(further entries)
SMILES	TRPML1 ag	CtBP-E1A inh	D2 PAM	Six1-Eya2 inh	D2 ag	PINK1 expr mod
COc1ccc(S(=O)(=O)N(CC(=O)NCc2ccco2)c2ccccc2)cc1OC	0.9	0	-2	-2	-0.6	1.0%
CC1CCCN(C(=O)CSc2ncccn2)C1 (stereo unspecified)	0.7	1	-5	5	-5.1	0.3%
CCCCOC(=O)c1ccc(NC(=O)C2CCCO2)cc1 (stereo unspecified)	-0.1	11	-11	3	-3.7	2.3%
O=C(c1ccccc1)C1Oc2ccccc2C2CC(c3cccs3)=NN12 (stereo unspecified)	-0.4	2	-7	-12	-2.9	0.8%
Clc1ccccc1-c1nc2ccccc2c2nncn12	0.5	-7	-10	-11	-2.0	2.0%
COC1(OC)N=C(N)C2(C#N)C(c3ccc(F)cc3)C12C#N (stereo unspecified)	-0.2	11	-8	3	-3.3	-1.0%
Cc1cccc2cc(/C=N/NC(=O)CN3CCOCC3)c(Cl)nc12	-1.6	0	10	3	0.3	3.9%
Cc1cc(C)n(-c2nc3c(c(=O)[nH]c(=O)n3C)n2CC(O)c2ccccc2)n1 (stereo unspecified)	1.8	0	-11	0	1.7	-1.1%
COCc1cc(C)nc(SCC[N+](C)(C)CC(=O)Nc2cccc(C)c2)c1C#N	-0.5	-7	-13	6	-3.2	-0.8%
N#CCCN(Cc1ccccc1)C(=O)c1cccs1	-0.4	1	2	3	-0.6	-0.9%
CC1=C(C(=O)Nc2ccccn2)C(c2ccc(N(C)C)cc2)n2ncnc2N1 (stereo unspecified)	0.1	-5	9	0	-3.4	3.0%[38.3 µM]
O=S(=O)(NNc1ccc(F)cc1F)c1cccc(Cl)c1	-1.3	4	19	7	13	5.8%
COc1ccc(OC)c(Cc2nnc(CCC(=O)NC3CCCCC3)o2)c1	1.2	x	2	2	1.6	0.0%
Cc1ccc(C)c(S(=O)(=O)N2CCCCC2CCNC(=O)C(=O)NCc2ccccc2)c1 (stereo unspecified)	1.0	-24	-8	-9	-1.6	11%
CC(C)(C)NC(=O)CSC(=Nc1cccc(F)c1)NC#N	1.2	-3	-1	-2	-4.4	3.1%
O=c1[nH]c2ccccc2nc1/C=C/c1ccc(O)cc1	9.1	1	8	10	0.4	-2.2%
O=C(CCc1ccccc1)N/N=C\C1CC=CCC1 (stereo unspecified)	-0.2	13	-9	0	-3.8	1.4%
Cc1ccc(NC(=O)N2CCC(C(N)=O)CC2)cc1	-0.5	36	-5	3	-0.8	-1.4%[38.3 µM]
CSc1ccccc1NC(=O)c1noc2c1CCC2	2.3	15	2	-3	5.8	-3.7%[38.3 µM]
COc1cccc(/C=C/C(=O)OCC(=O)c2ccc3c(c2)NC(=O)CO3)c1OC	1.5	-12	3	5	4.7	4.1%
CCN(CC)c1ccc(NC(=O)CCNC(=O)c2ccco2)cc1	2.4	-9	-5	-3	-1.0	-0.2%
Cc1ccc(O)c(NC(=O)c2ccco2)c1	0.0	1	-27	5	-4.8	0.2%
Cn1nc(NC(=O)CC(C)(C)CC(=O)O)c2ccccc21	-0.4	2	-3	-6	-4.1	0.8%
Cc1ccc(S(=O)(=O)NCC2CCCO2)cc1[N+](=O)[O-] (stereo unspecified)	0.9	8	-15	2	1.7	0.1%
COc1cccc(C(O)c2nc(-c3cncnc3)cs2)c1 (stereo unspecified)	0.0	-2	-14	3	-1.9	-0.1%

The list goes on.
SMILES	TRPML1 ag	CtBP-E1A inh	D2 PAM	Six1-Eya2 inh	D2 ag	PINK1 expr mod
Cc1cc(C)n2c(Br)c(CSc3nc4ccccc4o3)nc2n1	0.1	-17	-8	-13	0.1	-2.8%
Cc1ccccc1N(C(=O)c1snc(C(N)=O)c1N)C(C(=O)NC1CCCC1)c1ccco1 (stereo unspecified)	5.3	-3	1	-3	-1.4	2.4%
CS(=O)(=O)c1sc2nc(-c3ccccc3)cc(-c3ccccc3)c2c1N	0.8	44	-6	47	-1.3	-2.7%
CC(OC(=O)c1ccc2c(c1)C(=O)N(Cc1ccncc1)C2=O)C(=O)Nc1cccc(Cl)c1Cl (stereo unspecified)	-0.5	1	2	-2	-1.1	-0.3%
O=c1cnc2ccccc2n1CC1CCCCC1	0.3	3	-7	6	-0.2	x
COc1ccccc1NC(=O)CSc1nnc(-c2ccncc2)o1	u	5	0	3	-0.2	-2.1%
CN(C)S(=O)(=O)c1ccc(NC=O)cc1	-0.2	25	-12	33	-2.2	-0.7%
CN(C(=O)c1cccc(NC(=O)Cc2ccc(NC(=O)C3CCCN(C(=O)C4CCC4)C3)cc2)c1)C1CCCCC1 (stereo unspecified)	0.0	-3	x	-5	3.6	2.3%
N#Cc1c(N2CCN(C(=O)c3ccccc3)CC2)nc(-c2ccccc2)c2c1CCCC2	1.1	6	-4	-3	-5.3	7.7%
COc1ccc(CC(N)c2csc(NC(=O)c3ccccc3OC)n2)cc1 (stereo unspecified)	1.1	-4	0	-18	6.9	0.9%
COc1cccc(C(c2cccc(OC)c2)c2ccccc2C(=O)O)c1	0.6	0	-3	1	-1.4	-1.5%
COCCN(Cc1ccccc1)C(=O)c1cccc(S(=O)(=O)N2CCCc3ccccc32)c1	1.6	x	1	-1	-0.1	3.1%
CC1(C)CC(=O)c2cc3c(nc2C1)CC(C)(C)CC3=O	4.5	5	-1	6	-3.8	-1.4%
CCC1(C)Cc2ccccc2-c2nc(NCCO)[nH]c(=O)c21 (stereo unspecified)	0.7	-8	-32	13	-0.9	0.9%
Cc1ccc(NC(=O)CN(C)C(=O)CSc2nc3ccccc3o2)cc1	-0.7	0	-9	5	-0.9	-0.3%
O=C(CN1c2cccc3cccc(c23)S1(=O)=O)NCc1ccc(F)cc1	5.7	-11	0	-15	-1.6	-1.8%
CC1(c2ccc3c(c2)OCCO3)NC(=O)N(CC(=O)Nc2c(F)cccc2F)C1=O (stereo unspecified)	1.9	-6	-3	0	-0.1	0.7%
COc1ccc(-c2ccc(SCc3ccccn3)nn2)cc1OC	2.3	-1	13	u	1.9	1.4%
